# FGF22 binding: binders of recombinant human FGF22 by thermal shift. calls only at 9.99 µM. SYPRO orange fluorescence; percent of sucrose octasulfate shift, DMSO zero. actives 1.5% (n = 340,000);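 active = melting point raised past a set limit in the mean and every replicate; three in four hits are not shown here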
# Target sequence (Q9HCT0 whole entry, looked up): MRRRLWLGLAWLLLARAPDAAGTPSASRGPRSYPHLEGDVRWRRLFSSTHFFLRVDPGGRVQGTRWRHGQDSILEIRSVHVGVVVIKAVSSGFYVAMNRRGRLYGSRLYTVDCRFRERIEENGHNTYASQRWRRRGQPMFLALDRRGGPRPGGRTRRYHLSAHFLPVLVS
# Calls only; i = inactive. Not all compounds are listed; rates above refer to the full screens.
C[C@H](CO)N1C[C@H](C)[C@H](CN(C)C(=O)Nc2cccc3ccccc23)Oc2ncccc2C1=O
  FGF22 binding: i

COc1ccccc1C(=O)Nc1ccc2c(c1)C(=O)N(C)C[C@H](OC)[C@H](C)CN(C)[C@@H](C)CO2
  FGF22 binding: i

COc1cccc(-c2cnc3c(c2)C(=O)N([C@@H](C)CO)C[C@H](C)[C@H](CN(C)C(=O)CC2CC2)O3)c1
  FGF22 binding: i

CCN1[C@@H]2c3ccc(-c4cccc(OC)c4)c(=O)n3C[C@@H]2[C@@H](CO)[C@@H]1C(=O)OC
  FGF22 binding: i

C[C@@H]1CN([C@@H](C)CO)C(=O)c2cc(-c3cncnc3)cnc2O[C@@H]1CN(C)C(=O)Cc1ccccc1
  FGF22 binding: i

CCCC#Cc1ccc2c(c1)O[C@H](CN(C)C(=O)NC(C)C)[C@H](C)CN([C@@H](C)CO)S2(=O)=O
  FGF22 binding: i

COC(=O)C[C@H]1C[C@@H]2c3cc(NS(=O)(=O)c4ccc(OC)cc4)ccc3O[C@@H]2[C@@H](CO)O1
  FGF22 binding: i

C[C@H]1CN([C@@H](C)CO)S(=O)(=O)c2ccc(C#Cc3cccc(F)c3)cc2O[C@@H]1CN(C)C
  FGF22 binding: i

O=C(CN1CCOCC1)NCC[C@H]1CC[C@H](NC(=O)Nc2ccc(C(F)(F)F)cc2)[C@H](CO)O1
  FGF22 binding: i

COc1ccc(S(=O)(=O)Nc2ccc3c(c2)CC(=O)N([C@@H](C)CO)C[C@@H](C)[C@H](CN(C)Cc2ccc(C(=O)O)cc2)O3)cc1
  FGF22 binding: i

C[C@@H]1CN([C@H](C)CO)C(=O)c2cccc(NS(=O)(=O)c3ccc(F)cc3)c2O[C@H]1CN(C)Cc1ccccc1
  FGF22 binding: i

C[C@@H]1CN([C@@H](C)CO)C(=O)c2ccccc2-c2ccccc2CO[C@H]1CN(C)S(=O)(=O)c1ccc(Cl)cc1
  FGF22 binding: i

O[C@@H](Cc1ccccc1)[C@@H](/C=C/c1ccccc1)NCCc1ccccc1
  FGF22 binding: i

CCCNC(=O)[C@@H]1[C@@H](CO)[C@@H]2Cn3c(ccc(C4=CCCCC4)c3=O)[C@H]1N2CC
  FGF22 binding: i

C[C@H]1CN([C@@H](C)CO)C(=O)c2cccc(NC(=O)Nc3ccc(C(F)(F)F)cc3)c2O[C@H]1CN(C)S(=O)(=O)c1ccc(Cl)cc1
  FGF22 binding: i

CC(C)NC(=O)N(C)C[C@@H]1Oc2ccc(NS(C)(=O)=O)cc2CC(=O)N([C@H](C)CO)C[C@@H]1C
  FGF22 binding: i

COCCNC(=O)C[C@@H]1C[C@H]2c3cc(NC(=O)NC4CCCCC4)ccc3O[C@H]2[C@@H](CO)O1
  FGF22 binding: i

CN1CCCCC(NC(=O)c2ccc(F)cc2)C1=O (stereo not drawn)
  FGF22 binding: i

CC=Cc1ccc2n(c1=O)C[C@@H]1[C@@H](CO)[C@H](C(=O)N3CCC(Cc4ccccc4)CC3)N(CC)[C@H]21 (mixture of isomers)
  FGF22 binding: i

C[C@@H]1CN([C@H](C)CO)C(=O)Cc2cc(NC(=O)C3CC3)ccc2O[C@H]1CN(C)Cc1ccc(Cl)c(Cl)c1
  FGF22 binding: i

C[C@@H]1CN([C@H](C)CO)C(=O)Cc2cc(NS(=O)(=O)c3ccc(F)cc3)ccc2O[C@@H]1CN(C)Cc1ccc(C(=O)Nc2ccccc2N)cc1
  FGF22 binding: i

C[C@@H]1CCCCO[C@@H](CN(C)CC2CC2)[C@H](C)CN([C@@H](C)CO)C(=O)c2cc(NC(=O)Nc3ccc(C(F)(F)F)cc3)ccc2O1
  FGF22 binding: i

COc1ccc(-c2cnc3c(c2)C(=O)N([C@@H](C)CO)C[C@H](C)[C@H](CN(C)C(=O)Cc2ccccc2)O3)cc1
  FGF22 binding: i

C[C@@H]1CN([C@@H](C)CO)C(=O)Cc2cc(NS(=O)(=O)c3cccs3)ccc2O[C@H]1CN(C)CC1CC1
  FGF22 binding: i

COc1ccc(NC(=O)Nc2ccc3c(c2)[C@@H]2C[C@@H](CC(=O)NCc4ccc5c(c4)OCO5)O[C@H](CO)[C@@H]2O3)cc1
  FGF22 binding: i

COc1ccccc1C#Cc1ccc([C@H]2[C@@H](C#N)N(C(=O)C3CCCCC3)[C@H]2CO)cc1
  FGF22 binding: i

C[C@@H]1CN([C@H](C)CO)C(=O)c2cccc(NC(=O)C3CCCCC3)c2O[C@H]1CN(C)C(=O)Nc1ccc(C(F)(F)F)cc1
  FGF22 binding: i

COc1cccc(C(=O)Nc2ccc3c(c2)C(=O)N(C)[C@H]2CC[C@@H](CC(=O)N[C@H](C)c4ccccc4)O[C@@H]2CO3)c1
  FGF22 binding: i

C[C@@H]1CCCCO[C@@H](CN(C)Cc2ccc(C(F)(F)F)cc2)[C@@H](C)CN([C@@H](C)CO)C(=O)c2cc(NC(=O)Nc3ccc(C(F)(F)F)cc3)ccc2O1
  FGF22 binding: i

C[C@@H]1CCCCO[C@H](CN(C)S(=O)(=O)c2cn(C)cn2)[C@H](C)CN([C@H](C)CO)C(=O)c2cc(NC(=O)CCCN(C)C)ccc2O1
  FGF22 binding: i

CCCC(=O)N1CC2(CN(C(=O)Nc3cccc(F)c3)C2)c2c(n(C)c3cc(OC)ccc23)[C@H]1CO
  FGF22 binding: i

C[C@@H]1CN([C@H](C)CO)C(=O)c2cc(NC(=O)c3ccccc3)ccc2O[C@@H](C)CCCCO[C@@H]1CN(C)S(=O)(=O)c1ccc(Cl)cc1
  FGF22 binding: i

Cc1noc(C)c1NC(=O)Nc1ccc2c(c1)C(=O)N([C@H](C)CO)C[C@H](C)[C@@H](CN(C)C(=O)NC(C)C)OCCCC[C@@H](C)O2
  FGF22 binding: i

CCCNC(=O)Nc1ccc2c(c1)C(=O)N(C)C[C@@H](OC)[C@@H](C)CN[C@H](C)CO2
  FGF22 binding: i

CCCNC(=O)N1C[C@H](O)COC[C@@H]2O[C@H](CC(=O)NCCCN3CCOCC3)CC[C@H]21
  FGF22 binding: i

COc1ccc(NC(=O)N(C)C[C@H]2Oc3c(NS(=O)(=O)c4ccc(F)cc4)cccc3C(=O)N([C@@H](C)CO)C[C@@H]2C)cc1
  FGF22 binding: i

C[C@@H]1CCCCO[C@@H](CN(C)S(=O)(=O)c2cccs2)[C@H](C)CN([C@H](C)CO)C(=O)c2cc(NS(=O)(=O)c3ccc(F)cc3)ccc2O1
  FGF22 binding: i

Cc1noc(C)c1NC(=O)NCC[C@H]1CC[C@H](NC(=O)Nc2cccc(F)c2)[C@@H](CO)O1
  FGF22 binding: i

CC(=O)N1CC2(C1)[C@H](c1ccc(-c3ccccc3C)cc1)[C@@H](CO)N2C(=O)CC1CC1
  FGF22 binding: i

C[C@@H]1CN([C@@H](C)CO)C(=O)c2cccc(NC(=O)c3ccncc3)c2O[C@H]1CN(C)Cc1ccc(Cl)c(Cl)c1
  FGF22 binding: i

CO[C@H]1CN(C)C(=O)c2ccc(NC(=O)C3CC3)cc2OC[C@@H](C)N(CCC(F)(F)F)C[C@@H]1C
  FGF22 binding: i

Cc1nn(C)cc1NC(=O)C[C@@H]1CC[C@@H]2[C@H](COc3ccc(NC(=O)NC(C)C)cc3C(=O)N2C)O1
  FGF22 binding: i

O=S(=O)(Cc1ccccc1)N1CCCCN2[C@H](CO)[C@H](c3ccc(-c4ccc(F)cc4)cc3)[C@H]2C1
  FGF22 binding: i

CCCNC(=O)N1C[C@H](O)COC[C@H]2O[C@@H](CC(=O)OC)CC[C@@H]21
  FGF22 binding: i

CC(C)NC(=O)Nc1ccc2c(c1)C(=O)N([C@@H](C)CO)C[C@H](C)[C@@H](CN(C)S(C)(=O)=O)O2
  FGF22 binding: i

CCCC#Cc1ccc2c(c1)O[C@@H](CN(C)Cc1ccncc1)[C@H](C)CN([C@@H](C)CO)S2(=O)=O
  FGF22 binding: i

COCC#Cc1cnc2c(c1)C(=O)N([C@@H](C)CO)C[C@@H](C)[C@@H](CN(C)C(=O)CN1CCOCC1)O2
  FGF22 binding: i

C[C@H]1CN([C@@H](C)CO)C(=O)c2cc(NC(=O)NC3CCCCC3)ccc2O[C@H]1CN(C)C(=O)Nc1cccc2ccccc12
  FGF22 binding: i

COc1ccc2c3c(n(C)c2c1)[C@@H](CO)N(C(=O)c1cccnc1)CC31CCN(C)CC1
  FGF22 binding: i

COc1ccc(S(=O)(=O)N(C)C[C@H]2Oc3ccc(NS(C)(=O)=O)cc3C(=O)N([C@@H](C)CO)C[C@@H]2C)cc1
  FGF22 binding: i

CC(C)NC(=O)Nc1ccc2c(c1)C(=O)N([C@@H](C)CO)C[C@@H](C)[C@H](CN(C)CC1CCCCC1)OCCCC[C@@H](C)O2
  FGF22 binding: i

O=C(CC(F)(F)F)N1C[C@@H]2[C@H](c3ccccc31)[C@H](CO)N2C(=O)C1CCOCC1
  FGF22 binding: i

O=C(C[C@H]1CC[C@H]2[C@@H](COC[C@H](O)CN2Cc2ccccc2F)O1)N1CCc2ccccc2C1
  FGF22 binding: i

CC(C)NC(=O)N[C@H]1C=C[C@@H](CC(=O)NCc2ccc(Oc3ccccc3)cc2)O[C@H]1CO
  FGF22 binding: i

COc1ccccc1S(=O)(=O)N(C)C[C@@H]1Oc2cc(/C=C/c3ccccc3)ccc2S(=O)(=O)N([C@@H](C)CO)C[C@@H]1C
  FGF22 binding: i

C[C@H]1CCCCO[C@H](CN(C)S(=O)(=O)c2cccs2)[C@@H](C)CN([C@@H](C)CO)C(=O)c2cc(NC(=O)CCC(F)(F)F)ccc2O1
  FGF22 binding: i

CN1C(=O)c2cc(NS(=O)(=O)c3ccc(F)cc3)ccc2OC[C@H]2O[C@@H](CC(=O)O)CC[C@@H]21
  FGF22 binding: i

COc1ccc(CN(C)C[C@H]2OCCCC[C@H](C)Oc3ccc(NS(=O)(=O)c4ccc(F)cc4)cc3C(=O)N([C@H](C)CO)C[C@@H]2C)cc1
  FGF22 binding: i

C[C@@H]1CCCCO[C@@H](CN(C)Cc2ccncc2)[C@@H](C)CN([C@H](C)CO)C(=O)c2cc(NC(=O)CCCCCC(=O)Nc3ccccc3N)ccc2O1
  FGF22 binding: i

C[C@@H]1CN([C@@H](C)CO)C(=O)c2cc(C#CCc3ccccc3)cnc2O[C@H]1CN(C)C(=O)Cc1cccnc1
  FGF22 binding: i

# Already shown: an excerpt of the list.
COc1ccc(NC(=O)N(C)C[C@H]2Oc3c(NS(=O)(=O)c4ccc(F)cc4)cccc3C(=O)N([C@@H](C)CO)C[C@@H]2C)cc1
  FGF22 binding: i

C[C@@H]1CCCCO[C@@H](CN(C)S(=O)(=O)c2cccs2)[C@H](C)CN([C@H](C)CO)C(=O)c2cc(NS(=O)(=O)c3ccc(F)cc3)ccc2O1
  FGF22 binding: i

Cc1noc(C)c1NC(=O)NCC[C@H]1CC[C@H](NC(=O)Nc2cccc(F)c2)[C@@H](CO)O1
  FGF22 binding: i

CC(=O)N1CC2(C1)[C@H](c1ccc(-c3ccccc3C)cc1)[C@@H](CO)N2C(=O)CC1CC1
  FGF22 binding: i

# Next section:
Cc1noc(C)c1NC(=O)N(C)C[C@@H]1Oc2c(NC(=O)Nc3ccc4c(c3)OCO4)cccc2C(=O)N([C@H](C)CO)C[C@H]1C
  FGF22 binding: i

C[C@@H]1CN([C@H](C)CO)C(=O)Cc2cc(NC(=O)Cn3cnnn3)ccc2O[C@@H]1CN(C)Cc1ccc(Oc2ccccc2)cc1
  FGF22 binding: i

COc1ccc(S(=O)(=O)N2CCCCN3[C@H](CO)[C@@H](c4ccc(C#CC5CC5)cc4)[C@H]3C2)cc1
  FGF22 binding: i

C[C@@H]1CCCCO[C@@H](CN(C)C(=O)c2ccccc2)[C@H](C)CN([C@H](C)CO)C(=O)c2cc(NC(=O)Nc3ccccc3)ccc2O1
  FGF22 binding: i

O=C(C[C@H]1C[C@@H]2c3cc(NC(=O)C4CCC4)ccc3O[C@@H]2[C@H](CO)O1)NCc1ccc(Cl)cc1
  FGF22 binding: i

C[C@@H]1CN([C@@H](C)CO)C(=O)c2c(c3ccccc3n2C)-c2ccccc2CO[C@@H]1CN(C)Cc1ccc(F)cc1
  FGF22 binding: i

CC(=O)N1[C@@H]2c3ccc(-c4ccccc4)c(=O)n3C[C@H]1[C@H](CO)[C@H]2C(=O)N1CCCCC1
  FGF22 binding: i

C[C@@H]1CN([C@H](C)CO)C(=O)c2cc(NS(=O)(=O)c3cccs3)ccc2O[C@@H]1CN(C)C(=O)Nc1ccc2c(c1)OCO2
  FGF22 binding: i

C[C@@H]1CCCCO[C@H](CN(C)Cc2ccncc2)[C@H](C)CN([C@H](C)CO)C(=O)c2cc(NC(=O)Cc3ccccc3)ccc2O1
  FGF22 binding: i

CN(C)C(=O)c1cccc(-c2ccc3c(c2)[C@@H]2[C@@H](CCN2S(=O)(=O)c2ccccc2)[C@@H](CO)N3)c1
  FGF22 binding: i

O=C(Nc1cc(F)ccc1F)N1CCCCN2[C@H](CO)[C@H](c3ccc(C4=CCCCC4)cc3)[C@@H]2C1
  FGF22 binding: i

COc1ccc(S(=O)(=O)Nc2ccc3c(c2)C(=O)N([C@@H](C)CO)C[C@H](C)[C@H](CN(C)CC2CCCCC2)OCCCC[C@H](C)O3)cc1
  FGF22 binding: i

Cc1cccc(-c2ccc([C@@H]3[C@@H](CO)N4CCCCN(S(=O)(=O)c5cccc(C)c5)C[C@H]34)cc2)c1
  FGF22 binding: i

O=C(Nc1ccc2c(c1)OCO2)N[C@@H]1CC[C@H](CC(=O)N2CCN(c3ccccc3)CC2)O[C@@H]1CO
  FGF22 binding: i

C[C@H](NC(=O)C[C@H]1CC[C@@H]2[C@H](COC[C@@H](O)CN2C(=O)Nc2cccc(Cl)c2)O1)c1ccccc1
  FGF22 binding: i

Cc1noc(C)c1NC(=O)Nc1ccc2c(c1)CC(=O)N([C@@H](C)CO)C[C@@H](C)[C@@H](CN(C)S(=O)(=O)c1c(C)noc1C)O2
  FGF22 binding: i

CC(C)NC(=O)Nc1ccc2c(c1)C(=O)N([C@H](C)CO)C[C@@H](C)[C@H](CN(C)S(=O)(=O)c1cccs1)OCCCC[C@H](C)O2
  FGF22 binding: i

C[C@@H]1CN([C@@H](C)CO)C(=O)c2cc(NC(=O)Nc3ccc4c(c3)OCO4)ccc2O[C@@H](C)CCCCO[C@H]1CN(C)Cc1ccc(C(=O)O)cc1
  FGF22 binding: i

COc1ccc(NC(=O)N(C)C[C@H]2Oc3c(NC(=O)c4ccncc4)cccc3C(=O)N([C@H](C)CO)C[C@H]2C)cc1
  FGF22 binding: i

COc1ccc(CN(C)C[C@@H]2Oc3c(NC(=O)c4ccc(-c5nccs5)cc4)cccc3C(=O)N([C@H](C)CO)C[C@H]2C)cc1
  FGF22 binding: i
